FEN1 inh = blocks human flap endonuclease 1. P39748. Recombinant FEN1 flap cleavage, fluorescence, 15 min. Potency, µM (top dose mostly 114 µM), without a hit: at the highest dose activity change, negative = inhibition, hits mostly inhibitors. actives 0.35% (n = 390,000). AID 588795; also: nearly all actives have a fitted effect of over 65% in size
Target sequence (P39748 whole entry, looked up): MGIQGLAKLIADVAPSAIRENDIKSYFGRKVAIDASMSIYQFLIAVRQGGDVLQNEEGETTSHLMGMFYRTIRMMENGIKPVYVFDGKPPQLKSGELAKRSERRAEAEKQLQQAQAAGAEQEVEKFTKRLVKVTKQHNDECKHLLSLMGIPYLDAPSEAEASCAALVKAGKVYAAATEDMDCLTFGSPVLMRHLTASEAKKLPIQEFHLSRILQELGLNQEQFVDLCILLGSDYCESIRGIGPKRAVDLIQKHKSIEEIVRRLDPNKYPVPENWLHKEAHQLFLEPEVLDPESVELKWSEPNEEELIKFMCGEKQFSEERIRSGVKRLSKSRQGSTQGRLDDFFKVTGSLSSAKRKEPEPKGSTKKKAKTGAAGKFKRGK
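Quantitative HTS format: each compound was titrated, incubated with 10 nM nuclease for 15 min at room temperature, then challenged with flap substrate at 50 nM final. Signal change over 15 min gave concentration–effect curves.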
N370S GC = N370S glucocerebrosidase modulation, Gaucher chaperone candidate | P04062 | N370S GC spleen homogenate, 4MU-glucoside fluorescence | Potency, µM (titrated, usually from 59.4 µM), without a hit: top-dose activity change, negative = inhibition, usual class: inhibitors | actives 0.092% (n = 330,000);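 also: 0% = full enzyme activity and -100% = no enzyme basal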
The depositor's hits bear a star; ? = inconclusive; · = not tested or not shown; & = joins results of further samples; [ ] = another dose, or the depositor's remark. Calls follow the shape of the dose curve; as a rule, active = well fitted curve in the direction sought with a large enough effect; inconclusive = small, poorly fitted or top-dose-only effect, or another doubt; inactive = no such curve, though single readings can be large; an effect the other way counts as inactive or inconclusive. Unless noted, % is scaled to controls: 0 for no effect and ±100 for the full control effect; potency is read from the fitted curve at half-maximal effect. Only part of the results is shown; most or all hits stand in other tables.

SMILES	FEN1 inh	N370S GC
O=C(CN1/C(=C(/O)c2ccccc2)C(=O)c2ccccc2S1(=O)=O)c1ccccc1	?	-1.1%
O=C(c1ccc([N+](=O)[O-])cc1)N1CCN(C(=O)C2CCCCC2)CC1	5.2%	-2.2%
COc1ccccc1NC(=O)Nc1nnc(CC(=O)Nc2cccc(C)c2)s1	3.4%	-12.5%
Cn1c(NNC(=O)C2CCCCC2)cc(=O)n(C)c1=O	0.5%	-13.3%
Cc1c(Nc2ccc(C=O)cc2)c(=O)n(-c2ccccc2)n1C	-0.7%	-8.5%
O=C(Nc1ccc(O)c2c(=O)cc(-c3ccccc3Cl)oc12)c1ccccc1Cl	-5.8%	21.0%&8.8%
CC1CN(C(=O)c2ccc(NS(=O)(=O)c3cccc(Cl)c3)cc2)CC(C)O1 (configuration not stated)	-3.8%	-3.3%
O=C(CCn1c(=O)c2ccccc2n(Cc2ccccc2)c1=O)NC1CCN(Cc2ccccc2)CC1	6.3%	-7.4%
O=C(NCc1ccco1)/C(=C\c1cccs1)NC(=O)c1ccco1	13.8%	-0.8%
CCOc1ccc(NC(=NCc2ccc3c(c2)OCO3)SC2CC(=O)N(c3ccccc3)C2=O)cc1 (configuration not stated)	-9.6%	0.9%
CCCc1nn(C)c(C(=O)Nc2ccc(Cl)cc2)c1Cl	5.7%	-10.9%
COc1ccc(-c2nn(-c3ccccc3)cc2/C=C/C(=O)OCC(=O)Nc2ccc(C#N)cc2)cc1	-17.6%	0.2%
CCCn1c(N)c(C(=O)CSc2nnc(C3CC3)n2C2CC2)c(=O)[nH]c1=O	1.5%	·
CN(C)/C=C1/C(=O)Nc2ccccc21	-4.1%	2.2%
C=CCn1c(NC(=O)c2ccccc2)nc2ccccc21	0.0%	?
Cc1n[nH]c(C)c1S(=O)(=O)N1CCCC(C(=O)O)C1 (configuration not stated)	-6.2%	·
O=C(Nc1cccc(OC(F)(F)F)c1)c1ccc(Br)o1	-19.7%	4.0%
Cc1nnc(SCC(=O)N2CCC(C(=O)Nc3nccs3)CC2)n1Cc1ccccc1	-4.7%	3.2%
Cc1ccc(C(=O)C2=C(O)C(=O)N(c3ncccn3)C2c2ccccc2F)o1 (configuration not stated)	-1.1%	4.2%
Cc1cccc2[nH]c3c(N4CCC5(CC4)OCCO5)ncnc3c12	-5.3%	5.0%

Quoted from the listing:
Value for CN(C)/C=C1/C(=O)Nc2ccccc21 in FEN1 inh: -4.1%
Value for Cc1cccc2[nH]c3c(N4CCC5(CC4)OCCO5)ncnc3c12 in FEN1 inh: -5.3%

(continued)
SMILES	FEN1 inh	N370S GC
CCC(C)Nc1nc(OCC(F)(F)F)nc(OCC(F)(F)F)n1 (configuration not stated)	-21.3%	-1.2%
CCCCCC1CC(/C(C)=N/NC(N)=O)OC1=O (configuration not stated)	3.5%	7.8%
COc1cc(OC)c2ccc(=O)oc2c1C(CCN1CCCCC1)c1ccc(N(C)C)cc1 (configuration not stated)	0.4%&7.0%	-7.8%&-11.3%
Cn1ccsc1=NC(=O)c1ccc(CS(C)(=O)=O)cc1	-2.3%	-3.0%
Oc1ccccc1CNc1nc2ccccc2n1CCN1CCCCC1	4.6%	1.8%
Cn1c(CCN2CCCCC2)nc2cc(NC(=O)NC3CCCCC3)ccc21	0.3%	-1.1%
O=[N+]([O-])c1ccc(OCc2nnc(-c3ccccc3)o2)cc1	-2.4%	1.4%
Cc1[nH]c2ccccc2c1C(=O)CSc1nc2ccccc2c(=O)n1CCCN1CCOCC1	-0.7%	10µM*
Cc1ccccc1NC(=S)N(CCCN1CCCCC1)Cc1ccco1	-1.9%	-2.6%
CCCCC(=O)Nc1cccc(-c2cn3ccccc3n2)c1	-5.6%	-7.4%

Ordered by value in N370S GC (low to high): 6 of the compounds above
SMILES	FEN1 inh	N370S GC
CCCCC(=O)Nc1cccc(-c2cn3ccccc3n2)c1	-5.6%	-7.4%
Cc1ccccc1NC(=S)N(CCCN1CCCCC1)Cc1ccco1	-1.9%	-2.6%
CCC(C)Nc1nc(OCC(F)(F)F)nc(OCC(F)(F)F)n1 (configuration not stated)	-21.3%	-1.2%
Cn1c(CCN2CCCCC2)nc2cc(NC(=O)NC3CCCCC3)ccc21	0.3%	-1.1%
Oc1ccccc1CNc1nc2ccccc2n1CCN1CCCCC1	4.6%	1.8%
CCCCCC1CC(/C(C)=N/NC(N)=O)OC1=O (configuration not stated)	3.5%	7.8%

Carrying on.
SMILES	FEN1 inh	N370S GC
CC(C)CC(=O)NC(=S)Nc1nc(-c2ccc(Cl)cc2)cs1	1.5%	4.8%
CC(=O)Nc1cccc2c1C(=O)N(c1ccccc1C)C2=O	-5.8%	-5.3%
CSc1nc2c(c(=O)[nH]c(=O)n2C)n1Cc1ccccc1	2.0%	0.4%
O=C(Cc1ccccc1[N+](=O)[O-])Nc1ccc2c(c1)OCO2	1.4%	-19.2%
CC(C)(C)n1nnnc1CN(Cc1ccco1)Cc1cc2cc3c(cc2[nH]c1=O)OCO3	0.1%	-9.9%
CCOC(=O)N1CCN(c2cc(=O)n(-c3ccc(C)cc3)c(=O)[nH]2)CC1	-18.4%	10.9%
COc1ccc2c(C)c(CCC(=O)NCc3ccc(OC)c(OC)c3)c(=O)oc2c1	2.9%	·
C[C@@]12CCC(=O)C=C1CC[C@@H]1[C@@H]2[C@H](O)C[C@]2(C)[C@@H]1CC[C@]2(O)C(=O)CO	·	3.1%[21.6 µM]
CS(=O)(=O)N(Cc1ccccc1)c1ccc(C(=O)N2CCc3ccccc3C2)cc1	4.4%	-20.8%
CCOc1ncccc1C(=O)N1CCCSC1=Nc1ccccc1OC	2.2%	-5.8%
COc1ccc(-n2nc(C(=O)NCC(=O)NCCCN3CCOCC3)c3ccccc3c2=O)c(OC)c1	-2.3%	-5.3%
O=C1NCCCN1Cc1ccc(F)cc1	-16.0%	0.7%
CCOc1ccc(N2CC(C(=O)Oc3ccccc3)CC2=O)cc1 (configuration not stated)	-5.3%	-21.6%[2.35 µM]
Brc1ccc(-c2cn3c(n2)SCC3)cc1	-12.1%	14.6%
CC(C)Cc1nn2c(N)c(/C=C3\C=Nc4ccccc43)c(=O)nc2s1	-3.7%	-9.1%
CCc1ccccc1NC(=O)c1c(NC(=O)c2ccccc2)sc2c1CCCC2	9.1%	·
Cc1nc(CCNC(=O)CC2C(=O)NCCN2CC(C)C)nc2c1CCC2 (configuration not stated)	-0.1%	-7.5%
NC(=NCCCCCCN=C(N)/N=C(\N)Nc1ccc(Cl)cc1)/N=C(\N)Nc1ccc(Cl)cc1	?	6.31µM*
CCc1ccc2c(CN(CC)Cc3nc4ccccc4c(=O)[nH]3)cc(=O)oc2c1	3.3%	10.4%
Cc1ccc(-c2nn(-c3ccccc3)cc2/C=C/C(=O)Nc2cccc(S(N)(=O)=O)c2)cc1	-15.5%	19.4%
CN(C)c1ccc(-c2cccc(C3CC=CC4C3C(=O)N(Cc3ccccc3)C4c3ccc4ccccc4c3)c2)cc1 (configuration not stated)	16.9%&-14.7%	1.3%&3.4%
COc1cc(NC(=O)C2CCCN(S(=O)(=O)c3cn(C)cn3)C2)cc(OC)c1 (configuration not stated)	-1.7%	·
CCOC(=O)NCc1ccc(Cl)c(Cl)c1	2.1%	1.8%
CCCSc1ncc(Cl)c(C(=O)Nc2nc3ccc(OCC)cc3s2)n1	5.8%	·
CCN(CC)C(=O)c1sc(NC(=O)c2cccs2)c(C#N)c1C	16.7%	16.4%
CC1CCCN(S(=O)(=O)c2ccccc2[N+](=O)[O-])C1 (configuration not stated)	-6.5%	22.9%
CC(=O)c1ccc(OC(=O)c2ccc(Br)o2)cc1	-4.0%	-13.1%
C=CCn1c(SCC(=O)Nc2cccnc2Cl)nnc1-c1ccc(C(C)(C)C)cc1	1.1%	28.4%
COc1ccc(NC(=O)CSc2nnc(CNC(=O)c3ccco3)o2)c(OC)c1	-8.6%	·
Cc1nc(-c2ccc(Cl)cc2)sc1C1(C)CC(c2cccnc2)=NO1 (configuration not stated)	-1.6%	-0.4%
COCCNC(=O)c1c(-c2ccccc2)c(-c2ccccc2)nn(C)c1=O	29.1%	·
CCc1ccc(N(CC(=O)NCCc2ccccc2)C(=O)CCC(=O)Nc2ccccn2)cc1	3.1%	-4.2%
CCCn1c(SCCN2C(=O)c3ccccc3C2=O)n[nH]c1=O	-7.0%	4.4%[2.35 µM]
Cn1c(=O)c2nc(SCC(=O)Nc3ccc(Cl)c(Cl)c3)n(C)c2n(C)c1=O	12.2%	·
S=C(NN=C1C2CC3CC(C2)CC1C3)Nc1ccccc1	4.8%	-0.7%
COC(=O)c1cccc(NC(=S)NC(C)C)c1	3.1%	0.8%
O=C(Nc1c2c(nn1-c1ccc(F)cc1)CS(=O)C2)C12CC3CC(CC(C3)C1)C2 (configuration not stated)	1.8%	7.5%
Cc1ccc(NC(=O)CSc2ccc(-c3cccs3)nn2)cc1Cl	-21.4%	·
CCS(=O)(=O)Nc1ccccc1C(N)=O	-2.8%	1.4%
CCN(CC)CCC[C@H](C)Nc1ccnc2cc(Cl)ccc12	·	-4.3%[21.6 µM]
Cc1[nH]c2ccccc2c1C(=O)CSC(=S)N1CCCCC1	-0.5%	8.5%
Cn1c(=O)c2c(nc(NCc3ccco3)n2CC(O)CO)n(C)c1=O (configuration not stated)	-13.8%	-2.7%
COc1ccc(S(=O)(=O)Cc2ccc(C(=O)NCc3ccccn3)o2)cc1	-3.5%	-4.7%
CCN(CC(=O)Nc1ccc2c(c1)OCCO2)C(=O)CN1C(=O)NC(C)(c2ccc(C)cc2)C1=O (configuration not stated)	13.6%	·
CCCNC(=S)Nc1ccc(Br)cc1	14.7%	25.6%
CCN(CC)CCCn1c2c(c(SCC(=O)Nc3ccc(C)c(F)c3)nc1=O)CCC2	10.6%	-10.9%
O=C(O)CCCC(=O)NCCCc1ccccc1	-4.4%	1.2%
Cc1c(/C(O)=C2/C(=O)C(=O)N(CCN(C)C)C2c2ccc(C(C)C)cc2)cnn1-c1ccccc1 (configuration not stated)	-10.1%	-9.3%
COCCc1ncc(CN2CCC(C(=O)Nc3cccc(-c4cscn4)c3)CC2)cn1	-16.0%	-1.2%
CSCCC1NC(=O)N(CC(=O)N2N=C(c3ccc(Cl)cc3)CC2c2ccco2)C1=O (configuration not stated)	-11.1%	-9.8%
Later entries:
SMILES	FEN1 inh	N370S GC
O=C1SC(c2ccccc2)=N/C1=C/c1ccco1	-11.7%	-2.1%
O=[N+]([O-])c1ccc(NC(=S)N2CCN(c3ccc(F)cc3)CC2)cc1	-2.6%	10.4%
COc1ccccc1CNC(=O)COC(=O)c1cc(C)oc1C	15.9%	13.6%
COc1cccc(OC)c1C(=O)NC1C(=O)N2C1SC(C)(C)C2C(=O)O (configuration not stated)	·	0.7%
Cc1ccc2cccc(OCC(=O)Nc3ccc4c(c3)OCO4)c2n1	-5.4%	4.2%
O=C(NCc1ccc(F)cc1)c1ccc2c(c1)N(Cc1c(F)cccc1Cl)C(=O)CS2	-2.8%	·
COc1ccc(C(=O)NCCc2nnc3ccc(SCC(=O)N4CCCC4)nn23)cc1	-3.4%	-0.6%
COc1ccc(F)cc1S(=O)(=O)N1CCCC(C)C1 (configuration not stated)	2.5%	-8.6%
CSCCC(NC(=O)COc1ccccc1)C(=O)N(C)Cc1ccc(Cl)cc1Cl (configuration not stated)	0.6%	·
Cc1cc(C)cc(NC2=NC3(CCCCC3)N=C(N)N2)c1	0.4%	-2.2%
CCN(CC(=O)Nc1cccc(C(C)=O)c1)S(=O)(=O)c1ccc(C)cc1	27.8%	3.4%
O=C(Nc1cc(F)ccc1F)C1CCCN1S(=O)(=O)c1cccc2nsnc12 (configuration not stated)	-18.9%	4.5%
O=C(Nc1cccnc1)c1c(F)c(F)c(F)c(F)c1F	7.4%	-4.0%
O=C1/C(=C/c2ccc(Cl)cc2)SC(=S)N1CCC(=O)N1CCCCC1CCO (configuration not stated)	-12.9%	0.4%
COc1cc(C2C(C#N)=C(N)Oc3cc(N(C)C)ccc32)cc2c1OCO2 (configuration not stated)	-10.2%	4.4%
COc1ccc(CN(Cc2ccccn2)S(=O)(=O)c2ccc(-n3cnnn3)cc2)cc1	-3.2%	-6.6%
COc1cc(C)ccc1OCc1cc(C(=O)N2CCN(C3CCCCC3)CC2)no1	10.4%	7.4%
Cc1ccc(-c2cc(C(=O)NCCc3ccc(S(N)(=O)=O)cc3)c3ccccc3n2)cc1	-7.7%	-7.7%
O=C(CSc1nc2ccccc2nc1Cc1ccc(Cl)cc1)NCCc1ccccc1	6.2%	·
Cc1ccc(-c2nnn(CC(=O)Nc3nnc(C(C)C)s3)n2)cc1	-1.9%	2.8%
Cc1ccc2nc(-c3sc4nc(C)cc(C)c4c3N)[nH]c2c1	-21.4%	9.4%
O=C(C1c2ccccc2C(=O)N2CCc3ccccc3C12)N1CCN(Cc2ccccc2)CC1 (configuration not stated)	-10.3%	0.5%
Cc1cccc(C(=O)OCC(=O)N2CCc3ccccc3C2)c1O	-5.6%	·
C(=N\N1CCN(c2ccccc2)CC1)/c1ccccc1	1.8%	1.4%
O=C(CN1CCC(NC(=O)c2ccco2)CC1)Nc1cccc2ccccc12	-2.3%	3.5%
CC(C)CN1CCC(=O)N([C@H](CSc2ccc(Br)cc2)c2ccccc2)CC1	-18.7%	-16.7%
O=C(CN1C(=O)CSc2ccc(S(=O)(=O)N3CCCCC3)cc21)NCc1ccccc1	2.7%	1.3%
COc1cc2c(cc1NC(=O)COc1ccc(Cl)cc1)oc1ccccc12	-1.5%	·

Screening results from PubChem BioAssay.
